Source: PubChem BioAssay
ALR inh: blocks human ALR sulfhydryl oxidase activity. 290,000 compounds, 3.8% hits. purified ALR, DTT oxidation, H2O2 HRP-luminol luminescence. P55789. AID 485317. inhibition, % (no concentration beside the values);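 active = mean and each replicate at 75% or more; inconclusive = only one of the two met; inactive = neither met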;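 also: stock transfer was 7.5 nL into about 7.5 µL; 0% = neutral wells and 100% = wells with inactivated enzyme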
Target sequence (P55789 whole entry, looked up): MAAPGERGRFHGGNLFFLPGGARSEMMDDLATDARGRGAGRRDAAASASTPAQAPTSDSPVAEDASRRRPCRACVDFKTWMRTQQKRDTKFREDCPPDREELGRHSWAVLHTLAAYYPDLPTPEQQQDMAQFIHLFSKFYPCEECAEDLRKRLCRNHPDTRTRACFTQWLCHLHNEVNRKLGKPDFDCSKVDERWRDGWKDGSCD
Vif A3G: HIV-1 Vif–A3G interaction blockers – biochemical, TR-FRET, GST-Vif 1-94, biotin-A3G peptide, dose response retest, primary screen (AID 1117319) | TR-FRET GST-Vif / biotin-A3G peptide binding; higher % means a stronger effect; test concentration not given here; strong numbers were not always called active | inhibition, %; hits with a dose series show IC50 in µM | 260,000 compounds, 0.57% hits;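 active = above the screen mean plus three standard deviations and confirmed in dose response; inconclusive = results disagree or hit not tested in dose response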;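 also: Vif residues 1-94 fused to GST binding biotinylated APOBEC3G peptide 110-148; 0% = full assay without inhibitor and 100% = GST in place of GST-Vif; retest series ran down from 100 µM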
Ecoli growth: blocks Escherichia coli growth | OD600 absorbance (no concentration beside the values) | OD600, 23 h; hits give low values | 330,000 compounds, 0.21% hits;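 active = OD600 absorbance below the run mean of sample wells minus 3.6 SD, in any replicate, cut at about 0.56 in these data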;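 also: stock transfer was 300 nL into about 60 µL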
HNF4A DNA FP: change in binding of human HNF4 alpha to DNA. HNF4a-FITC DNA binding, fluorescence polarization, 1 h. 360,000 compounds, 0.3% hits. activity change, % at 10 µM; in the data active = activity change above about 30%, passing the limit was not always enough;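 also: controls were the assay level and a saturating level of protein; the project sought stronger binding though the title names inhibitors; some compounds called inactive have numbers as strong as hits; positive values seem to mean higher polarization but the record does not say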
Target sequence (P41235 whole entry, looked up): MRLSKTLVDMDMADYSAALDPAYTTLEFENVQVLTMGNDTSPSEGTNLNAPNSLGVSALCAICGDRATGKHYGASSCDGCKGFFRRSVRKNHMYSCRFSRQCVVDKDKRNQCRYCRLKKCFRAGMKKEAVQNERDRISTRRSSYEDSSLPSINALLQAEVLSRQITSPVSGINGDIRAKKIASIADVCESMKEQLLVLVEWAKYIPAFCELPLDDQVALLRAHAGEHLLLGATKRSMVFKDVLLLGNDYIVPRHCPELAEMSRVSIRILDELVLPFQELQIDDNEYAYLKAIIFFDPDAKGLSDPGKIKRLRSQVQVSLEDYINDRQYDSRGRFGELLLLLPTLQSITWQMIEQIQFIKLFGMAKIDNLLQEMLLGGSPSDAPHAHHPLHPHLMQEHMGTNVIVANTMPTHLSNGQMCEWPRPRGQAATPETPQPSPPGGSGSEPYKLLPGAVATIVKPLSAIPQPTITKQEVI
rRNA inh HTS: inhibitors of bacterial rRNA selective over humanized ribosomes; E. coli WT GFP vs humanized-ribosome RFP mutants, fluorescence, 24 h; hits give low values; DMSO median 0, no signal -100; GFP signal change (wild-type ribosome), % (test concentration not listed); AID 720706; 350,000 compounds, 1.6% hits;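 active = significant combined selectivity score with lowered wild-type GFP, culture density cut under 30%, mutant RFP and density less affected; inactive = any of these conditions unmet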; also: one replicate is shown; some compounds called inactive have numbers as strong as hits
MLL AF4-AF9 inh: blocks AF4 peptide binding to human AF9; AlphaScreen, biotin-AF4 peptide binding to FLAG-AF9; inhibition, % at 10 µM; P42568; 350,000 compounds, 0.47% hits;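 active = every replicate reaching a set inhibition limit, whatever the replicate mean, cut at about 25% in these data; inconclusive = mean inhibition reaches that limit but some replicates miss it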;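 also: 0% = plate neutral control median and 100% = total signal loss; the record names both 10 and 1 µM as test concentration; the first replicate is given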
FGF22 binding: shifts melting point of recombinant human FGF22. recombinant FGF22 thermal shift, SYPRO orange fluorescence; percent of sucrose octasulfate shift, DMSO zero. Q9HCT0. 340,000 compounds, 1.5% hits. calls only at 9.99 µM;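 active = melting point raised past a set limit in the mean and every replicate; inconclusive = no clear call; three in four hits are not shown here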
Target sequence (Q9HCT0 whole entry, looked up): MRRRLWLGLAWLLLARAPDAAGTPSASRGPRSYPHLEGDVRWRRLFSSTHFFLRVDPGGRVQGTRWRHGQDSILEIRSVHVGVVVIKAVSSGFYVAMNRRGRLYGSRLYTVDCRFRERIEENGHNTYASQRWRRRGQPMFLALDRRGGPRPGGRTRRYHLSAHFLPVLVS
rRNA inh HTS OD600: further read-out of rRNA inh HTS, marked with its call; OD600 change, %; measured here: OD600 growth;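 optical density of the mix in the first replicate; 0 = DMSO median and -100 = no signal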
rRNA inh HTS RFP: also measured in rRNA inh HTS; calls as there; RFP signal change, %; measured here: RFP humanized mutant strains;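 first replicate; 0 = DMSO median and -100 = no signal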
Numbers without * were called inactive; i = inactive; ? = inconclusive; . = not tested or not shown; & = joins results of further samples. These rows are one share of the data; the hit share may differ from the screen's.

Ecoli growth,rRNA inh HTS RFP,Vif A3G,ALR inh,rRNA inh HTS OD600,MLL AF4-AF9 inh,HNF4A DNA FP,smiles,rRNA inh HTS,FGF22 binding
0.62,7.1,.,2,11,-4.1,3.7,O=C1CC(c2ccccc2)CC(O)=C1C=Nc1cccc(Cl)c1 (stereo not drawn),9,i
0.68,.,4%,-15,.,.,4.4,O=C(Cc1ccc(Cl)cc1)Nc1cccc(-c2nnc(-c3ccco3)o2)c1,.,.
0.69,.,0%,99*,.,.,-0.4,Cc1ccc2nc(NCc3ccccc3)[nH]c2c1,.,.
.,9.6,.,.,-6,-5.6,.,C[C@@H]1CCCCO[C@@H](CN(C)S(=O)(=O)c2ccc(F)cc2)[C@H](C)CN([C@H](C)CO)C(=O)c2cc(NS(=O)(=O)c3cccs3)ccc2O1,-1,i
.,3.2,.,.,-7,8.2,.,CC(C)NC(=O)Nc1ccc2c(c1)C(=O)N([C@@H](C)CO)C[C@H](C)[C@H](CN(C)Cc1ccc(Cl)c(Cl)c1)OCCCC[C@@H](C)O2,0,i
0.68,-0.4,-7%,1,17,-3.2,2.1,Cc1ccc(C)c(S(=O)(=O)N2CCCC2CNC(=O)C(=O)NC2CCCC2)c1 (stereo not drawn),10,i
0.74,.,4%,-20,.,.,4.4,CC#CCCCC(=O)Nc1ccccc1C(=O)O,.,.
0.65,-8.0,.,4,-46,-3.0,2.8,Cc1ccc(N(Cc2ccccc2O)C(=O)c2ccccc2F)cc1,-31,i
0.72,2.5,.,0,0,?,4.8,CC(C)S(=O)(=O)C1=NSC2=NC(=O)/C(=C\c3ccc(OC(=O)c4ccco4)cc3)C(=N)N21,8,i
.,-1.4,.,.,15,0.5,.,COCC(=O)N1CC2(CCN(Cc3ccccc3)CC2)c2c([nH]c3cc(OC)ccc23)[C@@H]1CO,5,i
.,-0.4,.,.,-2,-2.7,.,C[C@@H]1CN([C@@H](C)CO)C(=O)c2cccc(NC(=O)c3cnccn3)c2O[C@H]1CN(C)C(=O)Nc1ccc(F)cc1,-1,i
0.73,.,6%,-5,.,.,1.4,CC1Cc2ccccc2N1C(=O)C1CCCN(S(=O)(=O)c2cccc3nsnc23)C1 (stereo not drawn),.,.
.,3.5,.,.,-10,0.4,.,Cc1ccc(S(=O)(=O)N(C)C[C@@H]2OCCCC[C@H](C)Oc3ccc(NS(C)(=O)=O)cc3C(=O)N([C@@H](C)CO)C[C@@H]2C)cc1,-1,i
0.69,-1.0,-5%,.,4,-5.8,0.2,COc1ccc(-c2nc(=S)c3ccc4ccccc4c3[nH]2)cc1,5,.
0.64,.,.,-6,.,.,0.0,CC1=C(C(=O)N2CCOCC2)C(c2cccc3ccccc23)NC(=S)N1 (stereo not drawn),.,.
0.65,-2.9,.,-10,3,0.5,0.1,Cc1ccc(C(=O)Nc2ccncc2)c(C)c1,-2,i
.,-0.7,.,.,0,2.7,.,Cc1ccc(S(=O)(=O)NCC[C@@H]2CC[C@H](NC(=O)CCN3CCCCC3)[C@@H](CO)O2)cc1,-1,i
0.72,-1.8,-8%,-2,12,-3.1,5.2,CC1CC(C)(C)NC(=S)N1CCC(=O)N1CCc2ccccc2C1 (stereo not drawn),18,i
.,.,-3%,-1,.,.,-1.1,C/C(NC1CCCCC1)=C(/C#N)C(=O)NCCN1CCOCC1,.,.
0.65,-0.6,-4%,.,13,-7.1,2.7,COc1ccc(CCNc2nc(C)nc3c2nnn3Cc2ccccc2)cc1,12,i

Eleven compounds already listed, arranged by length of the SMILES, largest number first:
Ecoli growth,rRNA inh HTS RFP,Vif A3G,ALR inh,rRNA inh HTS OD600,MLL AF4-AF9 inh,HNF4A DNA FP,smiles,rRNA inh HTS,FGF22 binding
.,9.6,.,.,-6,-5.6,.,C[C@@H]1CCCCO[C@@H](CN(C)S(=O)(=O)c2ccc(F)cc2)[C@H](C)CN([C@H](C)CO)C(=O)c2cc(NS(=O)(=O)c3cccs3)ccc2O1,-1,i
.,3.2,.,.,-7,8.2,.,CC(C)NC(=O)Nc1ccc2c(c1)C(=O)N([C@@H](C)CO)C[C@H](C)[C@H](CN(C)Cc1ccc(Cl)c(Cl)c1)OCCCC[C@@H](C)O2,0,i
.,3.5,.,.,-10,0.4,.,Cc1ccc(S(=O)(=O)N(C)C[C@@H]2OCCCC[C@H](C)Oc3ccc(NS(C)(=O)=O)cc3C(=O)N([C@@H](C)CO)C[C@@H]2C)cc1,-1,i
.,-0.4,.,.,-2,-2.7,.,C[C@@H]1CN([C@@H](C)CO)C(=O)c2cccc(NC(=O)c3cnccn3)c2O[C@H]1CN(C)C(=O)Nc1ccc(F)cc1,-1,i
.,-0.7,.,.,0,2.7,.,Cc1ccc(S(=O)(=O)NCC[C@@H]2CC[C@H](NC(=O)CCN3CCCCC3)[C@@H](CO)O2)cc1,-1,i
0.73,.,6%,-5,.,.,1.4,CC1Cc2ccccc2N1C(=O)C1CCCN(S(=O)(=O)c2cccc3nsnc23)C1 (stereo not drawn),.,.
0.64,.,.,-6,.,.,0.0,CC1=C(C(=O)N2CCOCC2)C(c2cccc3ccccc23)NC(=S)N1 (stereo not drawn),.,.
0.72,-1.8,-8%,-2,12,-3.1,5.2,CC1CC(C)(C)NC(=S)N1CCC(=O)N1CCc2ccccc2C1 (stereo not drawn),18,i
0.62,7.1,.,2,11,-4.1,3.7,O=C1CC(c2ccccc2)CC(O)=C1C=Nc1cccc(Cl)c1 (stereo not drawn),9,i
.,.,-3%,-1,.,.,-1.1,C/C(NC1CCCCC1)=C(/C#N)C(=O)NCCN1CCOCC1,.,.
0.65,-2.9,.,-10,3,0.5,0.1,Cc1ccc(C(=O)Nc2ccncc2)c(C)c1,-2,i

(listing goes on)
Ecoli growth,rRNA inh HTS RFP,Vif A3G,ALR inh,rRNA inh HTS OD600,MLL AF4-AF9 inh,HNF4A DNA FP,smiles,rRNA inh HTS,FGF22 binding
.,0.9,.,.,1,-1.1,.,O=S(=O)(N[C@H]1CC[C@H](CCn2cc(-c3cccc(F)c3)nn2)O[C@H]1CO)c1ccc(Cl)cc1,-2,i
.,0.0,14%,16,2,0.9,2.1,O=C(O)c1ccc(/C=C2\SC(=Nc3ccccc3)N(c3ccccc3)C2=O)cc1,6,.
0.69,-0.1,4%,0,7,-18,2.8,O=C(Cn1ncc2c([nH]c3ccccc32)c1=O)N1CCN(c2ccccn2)CC1,5,i
0.71,-2.1,.,-6,7,-6.5,-0.4,CCCCOc1ccc(N(CC(=O)NC2CCCCC2)C(=O)CCC(=O)Nc2ccccn2)cc1,2,i
0.68,-4.2,2%,88*,4,-1.3,-3.7,CC(C)[C@H](NC(=O)c1ccccc1)C(=O)OCC(=O)c1ccccc1F,-5,i
.,0.8,.,.,-4,-0.3,.,COc1cccc(S(=O)(=O)Nc2ccc3c(c2)C(=O)N(C)C[C@H](OC)[C@@H](C)CN(Cc2ccccc2F)[C@H](C)CO3)c1,-2,i
0.71,.,23%,0,.,.,3.6,COc1ccc(Cc2nnc(SC)[nH]c2=O)cc1OC,.,.
0.81,.,-8%,-3,.,.,-1.2,CCOC(=O)c1[nH]c2c(c1C)C(=O)CC(c1ccc(OC)c(OC)c1)C2 (stereo not drawn),.,.
0.69,2.6,3%,-10,24,2.5,1.0,O=C(COc1ccc2ccc(=O)oc2c1)NCc1ccccn1,20,i
.,-1.8,.,.,-7,-2.9,.,COc1ccc(S(=O)(=O)N[C@H]2C=C[C@@H](CC(=O)NCCc3ccccc3)O[C@H]2CO)cc1,-1,i
0.71,.,.,1,.,.,-3.9,O=C(CNC(=O)c1ccco1)OCc1ccc(Br)cc1,.,.
0.71,.,-1%,-2,.,.,-1.9,O=C(NCCO)/C(=C\c1ccc(Br)cc1)NC(=O)c1cccs1,.,.
0.67,2.1,1%,-1,15,-4.1,3.0,COC(=O)C1CCN(Cc2nnc(-c3ccccc3)o2)CC1,19,i
0.68,1.1,-11%,.,11,-1.4,-0.7,CCc1cccc2c1NC(=O)C2=O,-2,i
.,-1.4,.,.,5,-2.4,.,CC(C)(C)S(=O)N1C[C@@H]2CC(=O)C(CCO)=C2[C@H]1CCO (stereo partly drawn),2,i
0.7,.,8%,-3,.,-1.4,3.7,COc1cccc(CN(C)CC(=O)Nc2ccccc2N2CCOCC2)c1OC,.,.
0.69,-3.2,.,18,5,0.2,-2.8,Cc1ccc(C(=O)N(CC(=O)NC2CCCC2)c2ccc3c(c2)OCCO3)s1,7,i
.,.,.,.,.,1.8,3.1,OC(c1cccc(Cl)c1)c1nc(-c2ccoc2)cs1 (stereo not drawn),.,i
0.62,.,10%,-1,.,-2.2,-0.7,O=C(Nc1ccc(Cl)cc1)c1ccc(Br)cc1F,.,.
0.74,.,-1%,9,.,.,2.4,O=C(Nc1ccn(Cc2c(F)c(F)cc(F)c2F)n1)c1cccc(Cn2cc([N+](=O)[O-])cn2)c1,.,.
.,-1.9,.,.,5,3.5,.,O=C(C[C@@H]1C[C@@H]2c3cc(NC(=O)C4CCOCC4)ccc3O[C@@H]2[C@@H](CO)O1)NCc1ccccc1,1,i
.,2.3,.,.,-8,1.4,.,C[C@H]1CN([C@@H](C)CO)C(=O)Cc2cc(NS(=O)(=O)c3cccs3)ccc2O[C@H]1CN(C)Cc1ccc(C(=O)Nc2ccccc2N)cc1,-6,i
0.7,2.0,-2%&-7%,-3,-5,2.2,-1.3,COc1cccc(N(CC(=O)Nc2cccc(N(C)S(C)(=O)=O)c2)S(C)(=O)=O)c1,5,i
.,-4.8,.,.,5,-1.5,.,C[C@@H]1CCCCO[C@H](CN(C)C(=O)Nc2ccc3c(c2)OCO3)[C@H](C)CN([C@H](C)CO)C(=O)c2cc(NC(=O)Nc3ccc(C(F)(F)F)cc3)ccc2O1,1,i
0.68,0.2,-10%,21,-3,-1.9,0.8,O=C(O)c1cc(-c2ccccc2Cl)n(-c2ccc(F)cc2)n1,-9,i
0.74,1.8,6%,-3,-4,-0.5,2.1,COc1ccc(/C=C/C(=O)Nc2nc(C)c(C(=O)N(C)C)s2)cc1OC,-12,i
.,-1.6,.,.,4,-1.6,.,CO[C@@H]1CN(C)C(=O)c2cc(NC(C)=O)ccc2OC[C@@H](C)N(Cc2ccccc2C(=O)O)C[C@@H]1C,3,i
.,0.0,.,.,5,0.8,.,COc1ccc(S(=O)(=O)Nc2ccc3c(c2)CC(=O)N([C@@H](C)CO)C[C@@H](C)[C@H](CN(C)C(=O)NC2CCCCC2)O3)cc1,5,i
0.71,-2.5,-1%,-5,2,-0.8,1.2,CCN(CC)C(=O)Cn1cc(SCC(=O)NC)c2ccccc21,2,i
